CBX7 inh = blocks human CBX7 binding to H3K27me3 peptide. AlphaScreen His6-CBX7 / biotin-H3K27me3 peptide binding; stronger effect = lower value. normalised signal (fraction of DMSO) (concentration not given with the values). 66,000 compounds, 1.1% hits; in the data active = normalised signal below about 0.5;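 also: 100 nL library stock added to about 20 µL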
Target sequence (O95931 whole entry, looked up): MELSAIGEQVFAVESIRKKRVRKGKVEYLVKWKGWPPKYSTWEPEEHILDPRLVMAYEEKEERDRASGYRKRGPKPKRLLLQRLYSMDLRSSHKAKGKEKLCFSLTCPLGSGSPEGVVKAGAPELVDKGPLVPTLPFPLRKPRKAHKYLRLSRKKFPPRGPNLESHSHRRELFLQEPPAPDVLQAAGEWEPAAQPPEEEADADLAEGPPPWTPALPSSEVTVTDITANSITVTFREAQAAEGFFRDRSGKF
CBX7 inh z-score = second read-out of CBX7 inh, no call of its own (marks repeat the call); z-score; measured here: z-score of CBX7 signal; some inactives read as strong as hits; reference of the scale not given here;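 same signal on another scale; lower means less binding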
* marks the source's active call; other numbers are inactive results; & = joins results of further samples.

Start of the data: the first 3 records as a preview:
SMILES	CBX7 inh	CBX7 inh z-score
COc1ccc(CNc2nc3ccccc3n2C(C)C)cc1	1	0.83
O=C(CCCN1C(=O)c2cccnc2C1=O)Nc1ccc(C(F)(F)F)cc1	0.81	-1.8
CCCCOCC(O)CN1CCN(c2ccc(C)cc2)CC1 (stereo not given)	0.56	-0.92

The listing, repeating the preview:
SMILES	CBX7 inh	CBX7 inh z-score
COc1ccc(CNc2nc3ccccc3n2C(C)C)cc1	1	0.83
O=C(CCCN1C(=O)c2cccnc2C1=O)Nc1ccc(C(F)(F)F)cc1	0.81	-1.8
CCCCOCC(O)CN1CCN(c2ccc(C)cc2)CC1 (stereo not given)	0.56	-0.92
Clc1ccc(OCCCn2c(/C=C/c3ccccc3)nc3ccccc32)cc1	1.4	9.4
COC(=O)c1c(NC(=O)c2ccc(C)cc2)sc(C)c1C	1.5	1.3
Cc1nc2c(c(C)nn2C(C)(C)C)c(C)c1CCC(=O)O	1.1	0.92
COc1ccccc1N1CCN(c2ncc(C(=O)N(C)c3ccc(Cl)cc3)c3ccccc23)CC1	0.97	-0.64
Cc1ccc(Oc2cc(C)nc(-c3ccccc3O)n2)cc1	1.3	6.3
COc1cccc(CNC(=O)C(CC(C)C)NS(=O)(=O)c2ccc3c(c2)CCN3C(C)=O)c1 (stereo not given)	0.92	-1.6
CCC(CC)C(=O)N1CC(=O)Nc2ccc(F)cc2C1c1ccccc1 (stereo not given)	0.99	-0.055
CC1CCCCC1NC(=O)c1cc(=O)[nH]c2ccc(S(=O)(=O)N3CCCCCC3)cc12 (stereo not given)	0.98	-0.24
CCOc1ccc2c(c1)c(=O)c(S(=O)(=O)c1ccccc1)cn2Cc1ccccc1	0.89	-2.1
Cc1ccc(C)c(N2CCN(C(=O)CC(C)(C)CC3=NS(=O)(=O)c4ccccc4N3)CC2)c1	0.75	-6.5
CC(C)(C)OC(=O)N1CCC(c2c(C(=O)Nc3cc(F)ccc3F)cnn2-c2ccccc2)CC1	0.98	-0.76
CCOC(=O)c1cc(-c2ccsc2)no1	1	0.35
COc1ccc(NC(=O)c2ccc(CNc3c(N4CCC(C)CC4)c(=O)c3=O)cc2)cc1	0.91	-0.54
Brc1ccccc1Cn1c(-c2cncs2)nc2ccccc21	1	2.6
COc1ccc(-c2cc(C(F)(F)F)n3ncc(C(=O)N(C)CCC#N)c3n2)cc1OC	1.3	3.9
COc1ccc(CCNC(=O)c2cnc3cc(C)ccn3c2=O)cc1	1	0.5
COc1ccccc1-c1cc2nc(C)c(CCC(=O)NCc3ccc(Cl)cc3)c(C)n2n1	1.1	2.6

Some values from the results shown.
Entry for `CCOC(=O)c1cc(-c2ccsc2)no1` under CBX7 inh z-score: 0.35
Entry for `COc1ccc(CCNC(=O)c2cnc3cc(C)ccn3c2=O)cc1` under CBX7 inh z-score: 0.5
Entry for `CC1CCCCC1NC(=O)c1cc(=O)[nH]c2ccc(S(=O)(=O)N3CCCCCC3)cc12` (stereo not given) under CBX7 inh z-score: -0.24
Entry for `COc1ccccc1-c1cc2nc(C)c(CCC(=O)NCc3ccc(Cl)cc3)c(C)n2n1` under CBX7 inh z-score: 2.6
Entry for `COc1ccc(CNc2nc3ccccc3n2C(C)C)cc1` under CBX7 inh z-score: 0.83
Entry for `O=C(CCCN1C(=O)c2cccnc2C1=O)Nc1ccc(C(F)(F)F)cc1` under CBX7 inh: 0.81
Entry for `COc1ccc(NC(=O)c2ccc(CNc3c(N4CCC(C)CC4)c(=O)c3=O)cc2)cc1` under CBX7 inh: 0.91

(more compounds)
SMILES	CBX7 inh	CBX7 inh z-score
COc1cc2c(cc1OC)C1C(C(=O)NC3CC3)c3ccccc3C(=O)N1CC2 (stereo not given)	1	1
O=C(CN1C(=O)COc2ccccc21)NCc1ccccn1	0.92	-2.6
CCc1ccccc1NS(=O)(=O)c1ccc2[nH]cc(C(=O)NCc3ccccn3)c(=O)c2c1	0.93	-0.94
CC(=O)Nc1ccccc1-c1nc2ccccc2nc1OCc1ccc(C(=O)OC(C)C)cc1	1	1.1
Cc1ccc(S(=O)(=O)Nc2ccc3[nH]c(=O)[nH]c3c2)cc1C	0.93	-0.93
NC(=O)C1(N2CCCCC2)CCN(C(=O)c2cc3ccccn3n2)CC1	1	0.55
COc1cccc(-c2nc(CS(=O)(=O)CC(=O)NCc3ccc(C)cc3)c(C)o2)c1	1	0.18
COCCCNC(=O)c1ccc2c(c1)N(Cc1ccc(F)cc1)C(=O)c1ccccc1S2=O (stereo not given)	1.1	1.7
O=C(NC1CCCC1)C(c1ccc(Cl)cc1)N1CCCCC1 (stereo not given)	1	0.39
CCCC(=O)NC(c1cccs1)c1cc(Cl)c2cccnc2c1O (stereo not given)	0.27*	-2.6*
COc1ccc(NC(=O)CCS(=O)(=O)c2nc(-c3cccs3)cc(C(F)(F)F)n2)cc1	1	0.092
CCOC(=O)N1CCN(C(=O)C2CC(c3cc(OC)ccc3OC)=NO2)CC1 (stereo not given)	0.88	-2.2
O=C1CN(C(=O)CCc2ccccc2)C(c2ccccc2)c2cc(F)ccc2N1 (stereo not given)	0.96	-0.18
COc1cccc(C2=NOC(C(=O)NC(C)(C)C)C2)c1 (stereo not given)	0.99	-0.094
COc1ccc(-c2nn(-c3ccccc3)cc2C(=O)Nc2nccs2)cc1	0.84	-3.3
CCOC(=O)c1cccc(NC(=O)CN2C(=O)CC(C)(C)Sc3ccccc32)c1	1	-0.037
CCCN(c1nc(C)cc(OC)n1)S(=O)(=O)c1ccccc1	1.7	2.5
CCOC(=O)c1cnc2ccc(OCC)cc2c1NCc1ccccc1	1.3	9.2
COc1ccccc1CNC(=O)c1sc2ncn(CC(=O)N3CCCCC3)c(=O)c2c1C	1	0.72
Oc1cccc(-c2nc3ncccn3c2Nc2cccc(C(F)(F)F)c2)c1	1.1	2.8
Cc1ccc(NC(=O)c2cn(C3CCCC3)c(=O)c3c2c2ccccc2n3C)nc1	0.94	-1.6
COCCNC(=O)c1cnc(N2CCN(c3ccccc3OC)CC2)c2ccccc12	0.94	-1.5
COC(=O)c1cc2oc(C)cc2n1Cc1c(F)cccc1Cl	1	0.056
CC(=O)Nc1nc(-c2ccc(C)cc2)cs1	0.87	-0.3
O=C(NCCc1c[nH]c2ccccc12)c1ccc(Cn2c(=O)[nH]c3ccsc3c2=O)cc1	0.8	-4.4
Cn1c(NC(=O)c2ccc(Cl)c(Cl)c2)nc2ccccc21	1.1	0.76
COC(=O)CN1C(=O)CC(C)(C)S(=O)(=O)c2ccccc21	1	0.96
CC(=O)Nc1ccc(NC(=O)c2nn(C)cc2Br)cc1	1	0.32
Cc1nc2c(C(=O)N(C)Cc3ccccc3)c[nH]n2c(=O)c1Cc1ccc(Cl)cc1	1	0.46
Cc1cccc2c1-c1sc(C(=O)NCc3ccccc3Cl)cc1CO2	1.4	12
COc1ccc(CCN(C)C2CC(=O)N(c3ccc(Cl)cc3)C2=O)cc1OC (stereo not given)	1	0.72
CCOc1ccc2c(c1)c(=O)c(S(=O)(=O)c1ccc(C)cc1)cn2Cc1cccc(Cl)c1	0.94	-2.2
O=C(CSc1nc(-c2ccccc2)c(-c2ccccc2)[nH]1)N1CCOCC1	0.71	-1.1
CC(C)(CN1CCN(C(c2ccccc2)c2ccccc2)CC1)NS(=O)(=O)c1ccc(Cl)cc1	0.98	-0.022
COc1ccc(NC(=O)Cc2cn(C)c3ccccc23)cc1Cl	1	0.057
Cc1nc(Nc2c(F)cccc2F)c2cc(C)sc2n1	1	1.5
Cc1ccc(-c2csc3ncn(CC(=O)Nc4ccc(C)c(F)c4)c(=O)c23)cc1	0.96	-0.54
Cc1ccccc1C(=O)Nc1ccccc1-c1nc2ccccc2[nH]1	0.84	-0.18
CCOC(=O)N1CCC(NC(=O)c2cccc3c2C(=O)N(CCOC)C3)CC1	1.1	2.1
CCOC(=O)CN1CC23C=CC(O2)C(C(=O)Nc2ccc(C(C)C)cc2)C3C1=O (stereo not given)	1.1	2.9
Cc1cc(NC(=O)Cn2cnc3ccc(S(=O)(=O)N4CCC(C)CC4)cc3c2=O)no1	0.97	-0.71
O=C(CSc1nnc(Cc2cc(=O)[nH]c(=O)[nH]2)n1-c1ccc(Cl)cc1)NCC1CCCO1 (stereo not given)	0.87	-2
CC(=O)Nc1nonc1-c1nc2ccccc2n1Cc1ccc(C#N)cc1	1	-0.1
O=c1[nH]c2ccc(NCc3ccc4c(c3)OCO4)cc2[nH]1	0.87	-1.4
CCC(=O)N1c2ccccc2NC2=C(C(=O)CCC2)C1c1ccccc1 (stereo not given)	0.79	-2.2
CCC(=O)NC(C)c1nc2ccccc2n1Cc1ccccc1F (stereo not given)	1	0.59
CCCN(CCC)S(=O)(=O)c1ccc(C(=O)Nc2nnc(COC)o2)cc1	0.82	-4.9
O=C(c1ccc(NC2=NC3CS(=O)(=O)CC3S2)cc1)N1CCN(c2ncccn2)CC1 (stereo not given)	1	0.82
Cc1cc(N2CCCCC2)nc2ccc(NC(=O)CCC(=O)N3CCC(C)CC3)cc12	1	1.2
CCCCNC(=O)CN1N=C(c2ccc(Cl)cc2)CCC1=O	1	0.45
Cn1c(=O)c(=O)n(C)c2cc(S(=O)(=O)NCc3ccc(F)cc3)ccc21	0.84	-2.4
CNC(=O)c1cc(Nc2nnc(-c3ccc(C)c(S(N)(=O)=O)c3)c3ccccc23)ccc1OC	0.61	-4.3
NC(=O)C1CCN(c2nc(-c3cccc4ccccc34)cs2)CC1	0.97	-0.52
CC(CNC(=O)CC1Oc2ccccc2NC1=O)c1ccccc1 (stereo not given)	1	1.1
Clc1ccc2nc(-c3cccnc3)c(Nc3ccc4c(c3)OCO4)n2c1	1.1	1.1
CC(CCc1ccccc1)NC(=O)CC1(CC2=NS(=O)(=O)c3ccccc3N2)CCCC1 (stereo not given)	0.79	-2.3
CC1CC(C)CN(S(=O)(=O)c2ccc(C(=O)Nc3nc(-c4ccc5c(c4)OCO5)cs3)cc2)C1 (stereo not given)	1	0.88
O=C(CN1C(=O)c2ccccc2S1(=O)=O)Nc1cccc(F)c1	1.2	2.2
Cc1ccc(S(=O)(=O)N2CCC(C(=O)NCc3ccncc3)CC2)cc1	1	1.5
CCCCN(CC)CCNC(=O)c1ccc2c(c1)N=C(CC)c1ccccc1S2	1.4	4.5
Later entries:
SMILES	CBX7 inh	CBX7 inh z-score
CCOC(=O)c1cnc2ccc(OCC)cc2c1Nc1ccc(F)c(Cl)c1	0.4*	-0.68*
O=C1CN(C(=O)c2ccc(-c3ccccc3)cc2)C(c2ccc(F)cc2)c2cc(Cl)ccc2N1 (stereo not given)	0.74	-2.5
NS(=O)(=O)c1ccc(CCNC(=O)CCC2=NS(=O)(=O)c3ccccc3N2)cc1	0.91	-1.1
CCC(C)(C)NC(=O)C(CC(C)C)NS(=O)(=O)c1ccc2nc(C)sc2c1 (stereo not given)	0.98	-0.3
CCOC(=O)N1CCC(Nc2c(N(CC)CC)c(=O)c2=O)CC1	1.2	2
Cc1ccc(OCc2nc3c4c5c(sc4ncn3n2)CCCC5)cc1	1	0.77
CCc1ccc2oc(-c3cccc(NC(=O)c4cccc(F)c4)c3)nc2c1	1.1	3.4
O=C1C2C3C=CC(C4CC34)C2C(=O)N1Cc1cccnc1 (stereo not given)	0.93	-1.2
CCOC(=O)c1nn(-c2ccc3c(c2)OCO3)cc1O	1	1.3
CCC(C)c1ccccc1OCC(O)CN1CCN(c2ccc(F)cc2)CC1 (stereo not given)	0.84	-3.7
COc1ccc(NC(=O)c2sc3ncn(CC(=O)N4CCCCC4C)c(=O)c3c2C)cc1OC (stereo not given)	1	0.21
COc1cccc(C(=O)Nc2nsc(-c3ccccc3)n2)c1	0.94	-0.67
COc1ccc(CCCc2nnc(SCC(=O)Nc3cccc(C)c3)o2)cc1	0.92	-0.86
O=C(Cc1ccccc1)Nc1cccc(-c2nnc(-c3ccccc3)o2)c1	0.91	-1.7
Cc1nc2cc(-c3ccccc3)nn2c(C)c1CCC(=O)NCc1ccc(F)cc1	1.1	3.6
CCOC(=O)c1c(NC(=O)c2ccccc2C(=O)O)sc(C)c1C	1	-0.026
Nc1nonc1-c1ncc(-c2ccc(Br)cc2)nn1	0.96	-0.49
CCCCN(C)CCCNC(=O)c1ccc2c(c1)NC(=O)CS2	0.82	-2
Cc1ccc(Nc2c3c(nc4ccccc24)CCC3)cc1F	1	0.38
CCCn1cnc2cc(NCc3ccccc3OCC)ccc21	0.91	-2.4

The final 4 entries of the part above lead into the next.
SMILES	CBX7 inh	CBX7 inh z-score
Nc1nonc1-c1ncc(-c2ccc(Br)cc2)nn1	0.96	-0.49
CCCCN(C)CCCNC(=O)c1ccc2c(c1)NC(=O)CS2	0.82	-2
Cc1ccc(Nc2c3c(nc4ccccc24)CCC3)cc1F	1	0.38
CCCn1cnc2cc(NCc3ccccc3OCC)ccc21	0.91	-2.4
O=C1CC(c2nc3ccccc3n2CCc2ccccc2)CN1c1ccc(Br)cc1 (stereo not given)	0.95	-0.32
CCCCCC(=O)Nc1ccc2oc(-c3cccnc3)nc2c1	1	0.15
c1ccc(-c2[nH]nc3nc4ccccc4nc23)cc1	0.91	-1.5
CCCOc1ccc(C2CC(=O)Nc3cc(OCC)c(OCC)cc32)cc1 (stereo not given)	0.79	-2.6
c1ccc2c(c1)ncn2-c1ncnc2sc3c(c12)CCCC3	0.96	-0.54
O=C1CCCc2c1cc(-c1ccccc1)n2-c1cccnc1	0.91	-1.2
Cc1ccc(C(NC(=O)CC(C)C)c2ccc3cccnc3c2O)cc1 (stereo not given)	0.63	-1.3
FC(F)(F)c1ccc2nnc(-c3c[nH]c4ccccc34)n2c1	0.84&0.78	-1.6&-0.25
O=C(Cn1c2c(c(-c3ccccc3)cc1=O)CCCC2)NCc1ccc(F)cc1	0.98	-0.25
Cc1ccc(C)c(Cc2c(C)nc3nc(SCC(=O)NCc4ccccc4)nn3c2C)c1	0.93	-0.65
Cc1cccc(N2CCN(S(=O)(=O)c3ccc4c(c3)CCN4C(=O)CCC(=O)O)CC2)c1C	0.95	-0.76
COc1ccc(-c2noc(CCC(=O)N(C)c3cc(Cl)ccc3C)n2)cc1	0.96	-1
O=C(NC1CCCCCCC1)C1c2ccccc2C(=O)N1Cc1ccccc1 (stereo not given)	0.84	-3.2
O=C(CSc1ccc2nnc(-c3ccccc3)n2n1)Nc1ccc(Br)cc1	1.1	1.7

Source: PubChem (several laboratories)

The list is partial, so the mix of outcomes need not match the whole.
